D2 agonist – Beta-Arrestin HTS for Positive Allosteric Modulators of the Human D2 Dopamine Receptor: Agonists | D(2) dopamine receptor (Homo sapiens), P14416 | DiscoveRx PathHunter D2 beta-arrestin, luminescence, 90 min; 100% = 57 uM dopamine signal | activation, % (concentration not given with the values) | 0.084% of 360,000 active | AID 624465, 2012; in the data active = activation above about 40%; inconclusive = about 15% to 40%; inactive = below about 15%; also: compound concentration not given in the record; the text of the record calls up to 30% inactive
Target sequence (P14416 whole entry, looked up): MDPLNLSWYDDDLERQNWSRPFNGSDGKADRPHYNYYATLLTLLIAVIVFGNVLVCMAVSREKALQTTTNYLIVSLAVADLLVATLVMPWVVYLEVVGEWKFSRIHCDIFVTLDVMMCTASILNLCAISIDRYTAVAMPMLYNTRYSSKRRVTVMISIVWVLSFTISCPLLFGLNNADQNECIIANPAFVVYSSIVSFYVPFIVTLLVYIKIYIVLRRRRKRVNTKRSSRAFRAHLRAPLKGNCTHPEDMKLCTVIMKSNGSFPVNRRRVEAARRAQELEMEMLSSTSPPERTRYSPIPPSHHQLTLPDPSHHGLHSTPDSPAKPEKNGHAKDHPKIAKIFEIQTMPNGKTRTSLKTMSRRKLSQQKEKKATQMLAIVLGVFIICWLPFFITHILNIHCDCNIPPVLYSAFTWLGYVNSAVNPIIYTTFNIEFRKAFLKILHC
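DiscoveRx PathHunter D2 beta-arrestin cells (2,100/well) attached overnight, then compound-stimulated 90 min at 37 C in HBSS/10 mM HEPES/0.1% Tween-20 buffer; beta-galactosidase complementation read by luminescence after 1 h at ambient temperature. Dopamine 57 uM final (EC100) as control.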
PINK1 modulator – A Quantitative High throughput Screen to Identify Chemical Modulators of PINK1 Expression; PINK1 immunofluorescence, high-content cytometry, 24 h; Potency, µM (series often up to 76.6 µM), for inactives: at the top dose activation (PINK1 increase), most hits filed as activators; 0.2% of 410,000 active; active = well fitted activation curve with a large enough effect; inconclusive = small, poorly fitted or top-dose-only effect; inactive = flat fitted curve, though single readings scatter; cell line not stated here;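 also: potency is read from the fitted curve at half-maximal effect; % of control where 0% means no effect; nearly all actives have a fitted effect of over 65% in size; a mitochondrial uncoupler was the plate control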
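Cells are seeded, rested 12 hours, then given compound at five concentrations or DMSO for 24 hours. After fixation, blocking and antibody staining, PINK1 amount and mitochondrial localization are scored; CCCP serves as control.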
TRPV1 potentiator – HTS Assay for Compounds that Act as Potentiators of the Vanilloid Receptor 1; TRPV1-expressing cells, Fluo-8 calcium influx, capsaicin EC20 potentiation; host cell line not named in the record; control for the full effect not named in the record; potentiation, % at 8.33 µM; Transient receptor potential cation channel subfamily V member 1 (Homo sapiens), Q8NER1; AID 540277, 2011; 0.02% of 320,000 active; active means potentiation above 80%; inconclusive means 30% to 80%; inactive means below 30%; also: 0% is about no effect
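Fluo-8 calcium influx in TRPV1-expressing cells, kinetic read (ex 480/em 520 nm). Compound added and read 3 min for agonist activity, followed by capsaicin at EC20 final and 2 min further read for enhancement.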
CtBP-E1A inh – qHTS Assay for Inhibitors of the CtBP/E1A Interaction | activity change, % (test concentration not listed) | AID 651724, 2012 | CtBP / adenovirus E1A interaction (AlphaScreen) | 0.49% of 340,000 active | AlphaScreen GST-E1A/His-CtBP binding, 1536-well; hits give low values; control for the full effect not named in the record; in the data active means activity change below about -65%; inconclusive means about -30% to -65%; inactive means above about -30%; also: % is scaled to controls: 0 for no effect and ±100 for the full control effect; compound concentration not given in the record
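Steps: dispense buffer (Tris pH 8.0, NaCl 300 mM, TCEP 1 mM, BSA, Tween 20); add 5X protein mix (GST-E1A, His-CtBP, 125 nM each); pin 23 nL compound; 2 h at 37 °C, dark; add 5X beads (50 ug/mL); 1 h; read.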
D2 potentiator – Beta-Arrestin HTS for Positive Allosteric Modulators of the Human D2 Dopamine Receptor: Potentiators. D(2) dopamine receptor (Homo sapiens), P14416. DiscoveRx D2 beta-arrestin cells, luminescence, 90 min; 100% = 57 uM dopamine signal. potentiation, % (concentration not given with the values). 0.23% of 360,000 active; active = potentiation of 50% or more; inconclusive = 30% to 50%; inactive = 30% or less;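 also: compound concentration not given in the record; tested on top of an EC20 dose of dopamine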
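D2 cells co-treated with compound plus 50 nM dopamine (EC20) for 90 min at 37 deg C to detect potentiation. Beta-arrestin recruitment was read as enzyme-fragment luminescence after 1 h at ambient temperature. Full response was set by 57 uM dopamine.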
Six1-Eya2 inh – qHTS Assay for Inhibitors of the Six1/Eya2 Interaction; Homeobox protein SIX1 (Homo sapiens) + Protein phosphatase EYA2 (Homo sapiens), …; AlphaScreen GST-Six1/His-Eya2 binding, biochemical; hits give low values; control for the full effect not named in the record; activity change, % (test concentration not listed); 0.56% of 360,000 active; AID 651725, 2012; in the data active = activity change below about -65%; inconclusive = about -30% to -65%; inactive = above about -30%; also: % is scaled to controls: 0 for no effect and ±100 for the full control effect; compound concentration not given in the record
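Compounds are tested against tagged Six1 and Eya2 proteins bridged by glutathione donor and nickel acceptor beads; after a one-hour incubation at 37 °C without light, AlphaScreen emission is recorded.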
Sfp inh – qHTS Assay for Inhibitors of Bacillus subtilis Sfp phosphopantetheinyl transferase (PPTase). 4'-phosphopantetheinyl transferase ffp (Bacillus subtilis), Q9F4F7. Biochemical Sfp PPTase activity, qHTS. Potency, µM, for the others: max response, negative = inhibition, most hits filed as inhibitors. 3.5% of 310,000 active. AID 1490, 2009; active = well fitted inhibition curve with a large enough effect; inconclusive = small, poorly fitted or top-dose-only effect, or another doubt; inactive = no such curve, though single readings can be large or run the other way;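 also: the enzyme is Sfp with the accession as filed and its product quenches rhodamine fluorescence; potency is read from the fitted curve at half-maximal effect; 0% = enzyme reaction without inhibitor and -100% = no enzyme wells; top concentration of the series not given in the record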
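Step 1, compound plus 15 nM Sfp-PPTase, 15 min, room temperature. Step 2, add rhodamine-CoA (5 uM) and BHQ-2-YbbR (12.5 uM). Step 3, read 525/598 nm fluorescence at 0 and 30 min.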
The depositor's hits bear a star; ? = inconclusive; . = no result given; & = joins results of further samples; [ ] = another dose, or the depositor's remark.

Keys – A = D2 agonist; B = PINK1 modulator; C = TRPV1 potentiator; D = CtBP-E1A inh; E = D2 potentiator; F = Six1-Eya2 inh; G = Sfp inh
CC(C)(CO)CN1CCC(n2nccc2NC(=O)C2CCCC2)CC1
  A: -4.4	B: 2.5%	C: 0	D: -1	E: -3	F: 0	G: 3%
COc1cc2ncnc(NCc3ccco3)c2cc1OC
  A: -3.0	B: 2.3%	C: 7	D: -22	E: -13	F: -10	G: -2%
Cc1oc(-c2ccccc2Cl)nc1CS(=O)CC(=O)NCCc1ccccc1 (stereo not drawn)
  A: 1.9	B: -0.2%	C: ?	D: .	E: -10	F: -5	G: -10%
Nc1ncnc2nc(SCC(=O)Nc3ccccc3F)[nH]c12
  A: 4.0	B: -0.1%	C: 19	D: 1	E: -3	F: -4	G: 8%
S=c1nc2ccccc2c2nc(-c3ccccc3Br)[nH]n12
  A: -2.2	B: 5.1%	C: ?	D: -7	E: -6	F: -16	G: -3%
COC(=O)N/N=C/c1cccnc1
  A: -2.6	B: 1.5%	C: 11	D: 2	E: -23	F: -5	G: 10%
COc1ccc(C(=O)N/N=C(\C)Cn2cnc([N+](=O)[O-])n2)cc1
  A: -0.5	B: -0.7%	C: -8	D: 12	E: -7	F: -6	G: 0%
COC(=O)c1ccc2[nH]c([C@H](C)O)c([C@H](C)O)c2c1
  A: 1.6	B: 1.8%	C: -9	D: -2	E: -5	F: 1	G: 9%
Cc1ccnc(SC2CC(=O)N(c3ccc(F)cc3)C2=O)n1 (stereo not drawn)
  A: -2.0	B: -0.6%	C: 10	D: 0	E: -2	F: 0	G: 6%
Cn1c(NCCO)nc2c1c(=O)n(Cc1ccc(F)cc1)c(=O)n2C
  A: -2.3	B: -0.4%	C: -21	D: -15	E: -8	F: -30	G: 7%
Cc1ccc(S(=O)(=O)NC(=O)C2(C)CCN2C(=O)Cc2ccc(-c3ccccc3)cc2)nc1 (stereo not drawn)
  A: 0.1	B: 0.2%	C: .	D: 7	E: -2	F: 0	G: .
O=C(Nc1ccc2ccccc2c1)c1ccccc1O
  A: -5.5	B: 14µM*	C: -20	D: 7	E: -11	F: -2	G: -5%
Cc1cc(=O)oc2c(C(=O)/C=C/c3ccccc3)c(O)ccc12
  A: -1.1	B: 0.9%	C: 3	D: 4	E: -11	F: 8	G: 12%
N#CCc1nn(-c2ccc(Cl)cc2)c(N)c1C#N
  A: -0.3	B: -0.1%	C: 9	D: -22	E: 11	F: -14	G: 26%
O=c1c(-c2ccccc2)c(O)c2c(n1-c1ccccc1)CCCC2
  A: -1.5	B: 3.2%	C: 19	D: -4	E: -4	F: 5	G: 6%
O=C(Nc1ccc(NC(=S)NC(=O)C(c2ccccc2)c2ccccc2)cc1)c1ccccc1
  A: 0.7	B: 1.2%	C: .	D: -9	E: -5	F: -20	G: .
CCC(C(=O)NCc1ccco1)n1nc(C)c2c(C)n(-c3ccc(C)cc3)nc2c1=O (stereo not drawn)
  A: 5.4	B: -0.2%&4.2%	C: 3	D: -5	E: -3	F: -4	G: 13%
Fc1ccc2cnc(-c3ccccc3)cc2c1
  A: -1.9	B: 5.9%	C: .	D: 19	E: -3	F: 16	G: .
CC1(C)CC(=O)C=C(Nc2cccc(F)c2)C1
  A: -1.9	B: 6.7%	C: 13	D: 4	E: -2	F: 1	G: 3%
CCc1ccc(N2Cc3ccccc3C2)cc1
  A: -1.5	B: -0.2%	C: 2	D: 0	E: -5	F: -1	G: ?
CCC1Cc2c(nc(N)c3c(N)nc(N4CCCCC4)c(C#N)c23)O1 (stereo not drawn)
  A: 2.0	B: 2.2%	C: -11	D: -1	E: 6	F: 0	G: -3%
NC(N)=N/N=C/c1ccc(OCc2ccccc2Cl)cc1
  A: 4.4	B: -8.1%[38.3 µM]	C: ?	D: -1	E: -1	F: -13	G: 50µM*
CC(=O)C(C)Oc1ccc2c3c(c(=O)oc2c1)CCCC3 (stereo not drawn)
  A: -2.1	B: -3.7%	C: -18	D: 1	E: -12	F: 2	G: 9%
O=C(Cn1nc(Cl)nc1Cl)c1ccc(F)cc1
  A: -3.2	B: -1.2%	C: 7	D: .	E: 10	F: 1	G: 10%
Cc1cc(Cl)ccc1OCC(=O)OCC(=O)Nc1ccc(Cl)cn1
  A: 0.8	B: -0.8%	C: .	D: -1	E: 1	F: -2	G: .
Cc1cc(C)c(S(=O)(=O)N2CCCOC2CNC(=O)C(=O)NCCC2=CCCCC2)c(C)c1 (stereo not drawn)
  A: 1.6	B: -2.5%	C: 22	D: 14	E: -10	F: 13	G: -3%
Cc1c(C(=O)O)sc2nc(/C=C/c3cccc(O)c3)[nH]c(=O)c12
  A: -1.4	B: 2.5%	C: -19	D: ?	E: -1	F: ?	G: 13%
COc1ccccc1N(CC(O)CN(c1ccccc1)S(C)(=O)=O)S(=O)(=O)c1ccccc1 (stereo not drawn)
  A: -0.2	B: -2.8%	C: 3	D: -1	E: -7	F: 7	G: 5%
Cc1c(Cl)c([N+](=O)[O-])nn1CCCC(=O)Nc1c(Cl)cccc1Cl
  A: -8.0	B: -2.3%	C: 8	D: 6	E: -21	F: -4	G: 17%
O=C(NC(=S)NC1C2CC3CC(C2)CC1C3)C12CC3CC(CC(C3)C1)C2 (stereo not drawn)
  A: -0.5	B: 11%	C: 18	D: -10	E: -6	F: 3	G: -6%
CCC(=O)c1ccc(OCC(=O)Nc2nc(C)cs2)cc1
  A: -0.6	B: -0.5%	C: .	D: 6	E: -22	F: 2	G: .
CCOC(=O)[C@]12CCCC=C1N(Cc1ccc3c(c1)OCO3)C(=O)[C@H](CC(=O)NCc1ccc(C)o1)C2
  A: .	B: 0.1%	C: .	D: 3	E: .	F: -27	G: .
O=C(CCS(=O)(=O)c1cccs1)N1CCCC1
  A: 0.6	B: 0.4%	C: -4	D: 10	E: 8	F: 5	G: 14%
CCCSc1nnc(-c2ccccc2NC(=O)CC)c(=O)[nH]1
  A: -1.2	B: -0.8%	C: 8	D: -2	E: -6	F: 4	G: 7%
CCOC(=O)c1c(C)[nH]c(C)c1S(=O)(=O)NCC1CCN(Cc2cccc(Cl)c2)CC1
  A: -3.3	B: 2.5%	C: -11	D: .	E: -22	F: -18	G: 4%
CCn1cc([N+](=O)[O-])c(C(=O)Nc2ccc(Br)cn2)n1
  A: -2.9	B: 3.6%[38.3 µM]	C: -1	D: 5	E: 2	F: 3	G: 10%
Cc1nc2ccc(NC(=O)c3cccnc3)cc2s1
  A: 0.2	B: 3.0%	C: 6	D: 0	E: -9	F: -1	G: 5%
COc1ccccc1OCCC(=O)OCC(=O)Nc1ccc(Br)cc1F
  A: -2.6	B: 0.3%	C: 21	D: 2	E: -15	F: 7	G: 21%
O=C(Cc1ccc([N+](=O)[O-])cc1)N1N=C(c2ccncc2)CC1(O)C(F)(F)F (stereo not drawn)
  A: 0.9	B: 3.9%	C: -10	D: .	E: -9	F: 4	G: 11%
CC(C)NC(=O)/C(C#N)=C\c1ccc(N(C)C)o1
  A: -11	B: 23%	C: -21	D: 0	E: -11	F: 3	G: 0%

Filtered by structure: those above containing two or more sulfur atoms.
Keys – A = D2 agonist; B = PINK1 modulator; C = TRPV1 potentiator; D = CtBP-E1A inh; E = D2 potentiator; F = Six1-Eya2 inh; G = Sfp inh
COc1ccccc1N(CC(O)CN(c1ccccc1)S(C)(=O)=O)S(=O)(=O)c1ccccc1 (stereo not drawn)
  A: -0.2	B: -2.8%	C: 3	D: -1	E: -7	F: 7	G: 5%
O=C(CCS(=O)(=O)c1cccs1)N1CCCC1
  A: 0.6	B: 0.4%	C: -4	D: 10	E: 8	F: 5	G: 14%

The listing continues:
Keys – A = D2 agonist; B = PINK1 modulator; C = TRPV1 potentiator; D = CtBP-E1A inh; E = D2 potentiator; F = Six1-Eya2 inh; G = Sfp inh
CCCCn1c(C)cc2cc(O)ccc21
  A: -0.6	B: 9.7%	C: 21	D: -11	E: 6	F: -28	G: -12%
Cc1nnc(NC(=O)C2CCN(C(=O)c3ccco3)CC2)s1
  A: 5.5	B: 1.2%	C: 6	D: -6	E: 0	F: -8	G: 1%
COc1ccc(-c2cc(C(F)F)n3ncc(C(=O)n4ccnc4C)c3n2)cc1
  A: -5.7	B: -2.7%	C: 1	D: -5	E: -11	F: -10	G: 6%
COC(=O)c1cccc(-n2c(C)cc(C=O)c2C)c1C
  A: 0.7	B: 0.4%	C: 0	D: -15	E: 13	F: -10	G: 3%
COc1ccccc1N(CC(=O)Nc1ccccc1)S(=O)(=O)c1cccs1
  A: -1.7	B: 2.1%	C: 6	D: 0	E: -12	F: 0	G: .
O=C(Nc1nnc(-c2ccccn2)o1)c1cccc(Br)c1
  A: -3.8	B: 0.8%	C: 18	D: -2	E: -4	F: -25	G: 17%
CC(C)(C)NC(=O)CN(C(=O)C(=O)Nc1ccc2c(c1)OCCO2)N1CCOCC1
  A: -3.6	B: 2.7%	C: 15	D: 0	E: -5	F: -10	G: 14%
COc1cc(/C=C/c2ccc3cccc(O)c3n2)cc(Cl)c1OC
  A: 1.0	B: 17%	C: -5	D: -5	E: -7	F: -14	G: 50µM*
COc1ccc(CCN2CCCn3c2nc2c3c(=O)[nH]c(=O)n2C)cc1OC
  A: -3.4	B: 11%	C: 3	D: ?	E: -3	F: -12	G: 15%

One compound at a time, as listed above. Values in the order: D2 agonist | PINK1 modulator | TRPV1 potentiator | CtBP-E1A inh | D2 potentiator | Six1-Eya2 inh | Sfp inh
COc1cc(/C=C/c2ccc3cccc(O)c3n2)cc(Cl)c1OC reads 1.0 | 17% | -5 | -5 | -7 | -14 | 50µM*
CC(C)(C)NC(=O)CN(C(=O)C(=O)Nc1ccc2c(c1)OCCO2)N1CCOCC1 reads -3.6 | 2.7% | 15 | 0 | -5 | -10 | 14%
Cc1nnc(NC(=O)C2CCN(C(=O)c3ccco3)CC2)s1 reads 5.5 | 1.2% | 6 | -6 | 0 | -8 | 1%
COC(=O)c1cccc(-n2c(C)cc(C=O)c2C)c1C reads 0.7 | 0.4% | 0 | -15 | 13 | -10 | 3%
